Screens deposited in PubChem BioAssay by National Center for Advancing Translational Sciences (NCATS).
PINK1 expr mod – PINK1 expression modulation. PINK1 immunofluorescence, high-content cytometry, 24 h. actives 0.2% (n = 410,000). Potency, µM (doses to about 76.6 µM), for inactives: at the highest dose activation (PINK1 increase), hits mostly activators; active = well fitted activation curve with a large enough effect; inconclusive = small, poorly fitted or top-dose-only effect; inactive = flat fitted curve, though single readings scatter; cell line not stated here;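 further: potency means the concentration at half of the fitted maximal effect; % of control where 0% means no effect; nearly all actives have a fitted effect of over 65% in size; a mitochondrial uncoupler was the plate control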
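Stable cell line, 250 cells/well, 12 h attachment; compounds pinned at 5 concentrations, 24 h; CCCP control. Fixed with nuclear dye, primary antibodies 12 h at 10 degrees C, secondary plus cell stain; laser-scanning cytometer read.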
gsp antagonist – antagonizes gsp, the McCune-Albright syndrome mutation; gsp-mutant cells, cAMP HTRF, 30 min; control for the full effect not named in the record; Potency, µM (top dose mostly 76.9 µM), for inactives: top-dose activity change, negative = inhibition, hits mostly inhibitors; actives 0.4% (n = 340,000); AID 624288; active = falling curve of any shape with a large fitted effect; inconclusive = falling curve, mostly with a smaller effect; inactive = flat or rising curve; cell line not stated here;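 further: intracellular cAMP measured with PDE inhibitor Ro 20-1724 present during compound exposure; potency means the concentration at half of the fitted maximal effect; on the % scale 0 is the no-effect control and ±100 the full control effect; nearly all actives have a fitted effect of over 65% in size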
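HTRF cAMP read-out (cAMP-d2 plus anti-cAMP antibody-K in lysis buffer, 30 min RT). Before lysis, cells are exposed to compounds with […] for 30 min at 37C in DPBS containing Ca/Mg, BSA and Tween 20.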
Sfp inh – blocks B. subtilis Sfp PPTase activity | AID 1490 | actives 3.5% (n = 310,000) | Biochemical Sfp PPTase activity, qHTS | Potency, µM, for the others: max response, negative = inhibition, usual class: inhibitors | Q9F4F7; active means well fitted inhibition curve with a large enough effect; inconclusive means small, poorly fitted or top-dose-only effect, or another doubt; inactive means no such curve, though single readings can be large or run the other way;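 further: the enzyme is Sfp with the accession as filed and its product quenches rhodamine fluorescence; potency means the concentration at half of the fitted maximal effect; 0% = enzyme reaction without inhibitor and -100% = no enzyme wells; top concentration of the series not given in the record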
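Buffer: 50 mM Hepes-Na pH 7.6, 10 mM MgCl2, 0.01% Nonidet P-40, 0.01% BSA. Enzyme 15 nM, pre-exposed to compound 15 min; substrates then added and fluorescence change tracked over 30 min.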
D2 ag – human D2 receptor agonism in beta-arrestin assay | DiscoveRx PathHunter D2 beta-arrestin, luminescence, 90 min; 100% = 57 uM dopamine signal | P14416 | AID 624465 | activation, % (test concentration not listed) | actives 0.084% (n = 360,000); in the data active = activation above about 40%; inconclusive = about 15% to 40%; inactive = below about 15%; further: compound concentration not given in the record; the text of the record calls up to 30% inactive
Target sequence (P14416 whole entry, looked up): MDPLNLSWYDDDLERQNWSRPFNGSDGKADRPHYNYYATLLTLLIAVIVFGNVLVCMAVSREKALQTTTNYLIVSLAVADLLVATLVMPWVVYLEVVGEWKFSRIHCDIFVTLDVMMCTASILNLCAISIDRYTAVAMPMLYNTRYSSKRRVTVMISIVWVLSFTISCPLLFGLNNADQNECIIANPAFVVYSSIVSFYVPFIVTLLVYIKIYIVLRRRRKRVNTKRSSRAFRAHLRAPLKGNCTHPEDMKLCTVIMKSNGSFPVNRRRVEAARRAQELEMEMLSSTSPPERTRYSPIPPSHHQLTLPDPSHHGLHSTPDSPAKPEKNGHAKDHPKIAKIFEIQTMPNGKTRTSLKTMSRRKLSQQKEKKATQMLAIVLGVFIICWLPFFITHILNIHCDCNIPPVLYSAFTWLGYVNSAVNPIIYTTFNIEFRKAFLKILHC
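DiscoveRx PathHunter D2 beta-arrestin cells (2,100/well) attached overnight, then compound-stimulated 90 min at 37 C in HBSS/10 mM HEPES/0.1% Tween-20 buffer; beta-galactosidase complementation read by luminescence after 1 h at ambient temperature. Dopamine 57 uM final (EC100) as control.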
gsp ag – activates gsp, the McCune-Albright syndrome mutation; Potency, µM (series often up to 76.9 µM), for the others: at the top dose activation (cAMP increase), most hits filed as activators; gsp mutant cells, cAMP HTRF, 30 min; control for the full effect not named in the record; actives 0.13% (n = 340,000); active = well fitted activation curve with a large enough effect; inconclusive = small, poorly fitted or top-dose-only effect, or another doubt; inactive = no such curve, though single readings can be large or run the other way; cell line not stated here;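 further: phosphodiesterase inhibitor Ro 20-1724 added with compounds to block cAMP breakdown; potency means the concentration at half of the fitted maximal effect; nearly all actives have a fitted effect of over 60% in size; about a fifth of the inactives were tested at one dose only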
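Cells stably selected in G418 were plated at 2000/well, grown 16-24 hr, then given compounds in DMSO with the PDE inhibitor […] (300 uM solution added) for 30 min at 37C; cAMP was read by HTRF.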
ClpP mod – qHTS Assay for Activators of ClpP | ATP-dependent Clp protease proteolytic subunit (Bacillus subtilis (strain 168)), P80244 | purified B. subtilis ClpP, FRET peptide cleavage, 20 min | Potency, µM (highest dose often 57.5 µM), inactives show top-dose activity change, negative = active | actives 1.9% (n = 340,000); active = well fitted falling curve with a large enough effect; inconclusive = small, poorly fitted or top-dose-only effect; inactive = no such curve, though single readings can be large or run the other way; further: potency means the concentration at half of the fitted maximal effect; the source files actives as falling curves though it sought activators and does not explain the sign; nearly all actives have a fitted effect of over 65% in size; many hits overshoot -100%
Target sequence (P80244 whole entry, looked up): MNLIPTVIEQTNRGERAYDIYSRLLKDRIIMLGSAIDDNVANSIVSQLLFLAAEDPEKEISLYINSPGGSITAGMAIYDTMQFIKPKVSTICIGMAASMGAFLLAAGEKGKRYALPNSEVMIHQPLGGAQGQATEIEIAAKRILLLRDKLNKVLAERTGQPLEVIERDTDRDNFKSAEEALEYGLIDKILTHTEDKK
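Purified B. subtilis ClpP, 10 microg/mL final in Tris/HCl pH8 with KCl, BSA, glycerol and Tween-20, cleaved an Abz/nitrotyrosine-quenched decapeptide. Fluorescence (ex 320, em 430) was read at 0 and 20 min at room temperature. Delta was normalized to 5.8 microM ADEP and DMSO/no-enzyme controls.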
Menin-MLL FL inh – inhibitors of human menin-MLL interaction, wild-type MLL peptide. FP activity change, % at 61.4 µM. 290,000 tested, under 10 active. Fluorescence polarization, fluorescein-MLL peptide displacement from menin. AID 1766; inconclusive = falling polarisation curve, or a change in total fluorescence; inactive = total fluorescence flat and polarisation flat or rising; no compound was filed as active; the % refers to the polarisation; negative = inhibition;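 further: % of control where 0% means no effect; inhibitors lower the polarisation; unlabelled MLL peptide was the positive control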
* hit, by the source's call; ? = inconclusive; / = not tested or not shown; & = joins results of further samples; [ ] = another dose, or the depositor's remark. This is a subset; count on the stated rates, not on these rows.

SMILES | PINK1 expr mod | gsp antagonist | Sfp inh | D2 ag | gsp ag | ClpP mod | Menin-MLL FL inh
COc1cccc(NC(=O)[C@@H](NC(=O)N2C[C@H]3C[C@@H](C2)c2cccc(=O)n2C3)C(C)C)c1 | -0.4% | 6.8% | 12.7% | -4.3 | / | -8.0% | 3.5
CC/C(=N\NC(=O)c1ccccc1O)c1c(O)n(C2CCCCC2)c(=O)[nH]c1=O | -0.4% | -26.0% | 11.2% | -4.1 | 7.0% | -17.3% | /
O=C1NC(=O)N(c2ccc(Cl)cc2)C(=O)/C1=C/c1coc2ccc(O)cc2c1=O | 8.3% | -2.9% | 44.7µM* | -0.8 | 1.9% | 0.1% | ?
Cc1cc(CN(C)C)c(OC(=O)N(C)C)cc1C | -0.4% | 3.5% | 14.6% | -2.4 | -29.2% | -1.5% | 3.0
CCC(COC(=O)c1cc(OC)c(OC)c(OC)c1)(c1ccccc1)N(C)C (configuration not stated) | ? | -16.1%&-6.6%&-11.1% | -3.0%&9.0% | 1.2&2.8&5.0 | / | -4.2%&-3.1%&1.0% | -3.2&2.5
CCSc1nnc([C@@H](N)Cc2ccccc2)o1 | 3.5%[38.3 µM] | -3.4% | -9.3% | -3.3 | -25.2% | 0.3% | 3.0
CS(=O)(=O)c1ccc(C2=C(CNC(=O)c3cccnc3)[C@H]3CC[C@@H](C2)N3Cc2ccccc2)cc1 | 0.1% | / | / | -6.4 | -17.9% | -2.0% | /
CC(NC(=O)N1CC1(C)C)c1ccccc1 (configuration not stated) | -3.7% | 8.4% | / | -0.5 | -67.9%[inhibitor] | / | /
Cc1cc(NC(=O)COC(=O)c2c(C)nn(Cc3ccccc3Cl)c2Cl)no1 | 15.4%[38.3 µM] | 5.4% | ? | 1.8 | -21.4% | 0.1% | -1.7
COc1ccc(-c2nn(CCC#N)cc2C(=O)Nc2ccccc2Cl)cc1 | 5.4% | -26.1% | 18.8% | 7.6 | -42.5% | / | 3.0
Cc1nnc2ccc(N3CCN(C)CC3)nn12 | -1.2% | 5.1% | 1.1% | -0.7 | 11.1% | -5.4% | 2.4
Cc1cc(C(C#N)c2ccc(Cl)cc2)c(Cl)cc1NC(=O)c1cc(I)cc(I)c1O (configuration not stated) | 14.1µM* | ? | ? | -5.2 | / | -0.5% | ?
Oc1c(Br)c(Br)c(Br)c(Br)c1Br | ? | 2.9% | / | -2.0 | / | -2.4% | /
Clc1ccc2[nH]c3c(c2c1)CCNC3 | 6.9% | 13.8% | 2.9% | 0.6 | -0.1% | -0.6% | -2.7
COc1ccc(C(=O)OC2CC[C@@]3(C)C4CCC5[C@]6(O)CC(O)[C@@]7(O)C(CN8CC(C)CCC8[C@@]7(C)O)[C@]6(O)C[C@@]53O[C@]24O)cc1OC (some centres not stated) | 2.1% | 16.1% | 15.3% | 2.6 | -6.4% | / | 4.7
CCN(CC)C(=O)COc1cc(C)cc2oc(=O)c3c(c12)CCCC3 | -0.1% | -25.4% | 8.0% | 0.1 | -18.0% | / | 1.2
O=C(Cc1cccs1)N1CCC2(CC1)OCCO2 | -0.5%[38.3 µM] | -8.5% | 2.1% | 0.4 | -39.6% | 0.8% | 0.6

Reprinted from the entries so far (13 entries):
SMILES | PINK1 expr mod | gsp antagonist | Sfp inh | D2 ag | gsp ag | ClpP mod | Menin-MLL FL inh
Cc1cc(CN(C)C)c(OC(=O)N(C)C)cc1C | -0.4% | 3.5% | 14.6% | -2.4 | -29.2% | -1.5% | 3.0
CCC(COC(=O)c1cc(OC)c(OC)c(OC)c1)(c1ccccc1)N(C)C (configuration not stated) | ? | -16.1%&-6.6%&-11.1% | -3.0%&9.0% | 1.2&2.8&5.0 | / | -4.2%&-3.1%&1.0% | -3.2&2.5
CCSc1nnc([C@@H](N)Cc2ccccc2)o1 | 3.5%[38.3 µM] | -3.4% | -9.3% | -3.3 | -25.2% | 0.3% | 3.0
CS(=O)(=O)c1ccc(C2=C(CNC(=O)c3cccnc3)[C@H]3CC[C@@H](C2)N3Cc2ccccc2)cc1 | 0.1% | / | / | -6.4 | -17.9% | -2.0% | /
CC(NC(=O)N1CC1(C)C)c1ccccc1 (configuration not stated) | -3.7% | 8.4% | / | -0.5 | -67.9%[inhibitor] | / | /
Cc1cc(NC(=O)COC(=O)c2c(C)nn(Cc3ccccc3Cl)c2Cl)no1 | 15.4%[38.3 µM] | 5.4% | ? | 1.8 | -21.4% | 0.1% | -1.7
COc1ccc(-c2nn(CCC#N)cc2C(=O)Nc2ccccc2Cl)cc1 | 5.4% | -26.1% | 18.8% | 7.6 | -42.5% | / | 3.0
Cc1nnc2ccc(N3CCN(C)CC3)nn12 | -1.2% | 5.1% | 1.1% | -0.7 | 11.1% | -5.4% | 2.4
Cc1cc(C(C#N)c2ccc(Cl)cc2)c(Cl)cc1NC(=O)c1cc(I)cc(I)c1O (configuration not stated) | 14.1µM* | ? | ? | -5.2 | / | -0.5% | ?
Oc1c(Br)c(Br)c(Br)c(Br)c1Br | ? | 2.9% | / | -2.0 | / | -2.4% | /
Clc1ccc2[nH]c3c(c2c1)CCNC3 | 6.9% | 13.8% | 2.9% | 0.6 | -0.1% | -0.6% | -2.7
COc1ccc(C(=O)OC2CC[C@@]3(C)C4CCC5[C@]6(O)CC(O)[C@@]7(O)C(CN8CC(C)CCC8[C@@]7(C)O)[C@]6(O)C[C@@]53O[C@]24O)cc1OC (some centres not stated) | 2.1% | 16.1% | 15.3% | 2.6 | -6.4% | / | 4.7
CCN(CC)C(=O)COc1cc(C)cc2oc(=O)c3c(c12)CCCC3 | -0.1% | -25.4% | 8.0% | 0.1 | -18.0% | / | 1.2
